Assay outcomes as filed in PubChem BioAssay.
FGF22 binding = shifts melting point of recombinant human FGF22 | recombinant FGF22 thermal shift, SYPRO orange fluorescence; percent of sucrose octasulfate shift, DMSO zero | Q9HCT0 | actives 1.5% (n = 340,000) | calls only at 9.99 µM;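 active means melting point raised past a set limit in the mean and every replicate; three in four hits are not shown here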
Target sequence (Q9HCT0 whole entry, looked up): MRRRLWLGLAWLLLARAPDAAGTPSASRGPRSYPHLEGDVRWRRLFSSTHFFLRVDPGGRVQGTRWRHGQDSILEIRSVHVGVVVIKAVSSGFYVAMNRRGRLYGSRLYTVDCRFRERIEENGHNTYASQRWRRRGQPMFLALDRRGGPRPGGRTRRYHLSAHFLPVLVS
Calls only; i = inactive. An excerpt (hit frequency here may not be typical).

SMILES | FGF22 binding
O=C(N[C@H]1CC[C@@H](CCNC(=O)C2CC2)O[C@@H]1CO)c1ccncc1 | i
Cc1cc(N2CCN(C(=O)OC(C)(C)C)C[C@H]2C)ccc1N1CCN(Cc2ccccc2)[C@H](C)C1 | i
COc1ccc(S(=O)(=O)Nc2cccc3c2O[C@@H](CN(C)Cc2ccncc2)[C@H](C)CN([C@@H](C)CO)C3=O)cc1 | i
CNC(=O)C[C@H]1CC[C@H]2[C@H](COc3ccc(NC(=O)Nc4ccccc4F)cc3C(=O)N2C)O1 | i
C[C@H](CO)N1C[C@H](C)[C@@H](CN(C)Cc2cccc3c2OCCCO3)OCc2ccccc2-c2ccccc2C1=O | i
O=C(C[C@@H]1C[C@H]2c3cc(NC(=O)C4CCC4)ccc3O[C@H]2[C@@H](CO)O1)NCCN1CCCCC1 | i
C[C@H]1CN([C@@H](C)CO)S(=O)(=O)c2ccc(C#CCN(C)C)cc2O[C@H]1CN(C)Cc1ccncc1 | i
Cn1cnc(S(=O)(=O)N[C@H]2C=C[C@@H](CC(=O)Nc3ccccc3)O[C@@H]2CO)c1 | i
O=C(Nc1cccc(Cl)c1)N[C@@H]1CC[C@H](CCNC(=O)C2CCC2)O[C@H]1CO | i
C[C@H]1CN([C@@H](C)CO)C(=O)c2cc(NS(=O)(=O)c3ccc(F)cc3)ccc2O[C@@H]1CN(C)Cc1ccc(Oc2ccccc2)cc1 | i
C[C@H]1CN([C@@H](C)CO)C(=O)Cc2cc(NC(=O)CCN3CCOCC3)ccc2O[C@H]1CN(C)S(=O)(=O)c1cn(C)cn1 | i
CN(C)CC(=O)N1[C@H](CO)[C@H](c2ccccc2-c2ccccc2F)[C@@H]1C#N | i

Continued, overlapping the part above by 3 compounds.
SMILES | FGF22 binding
C[C@H]1CN([C@@H](C)CO)C(=O)c2cc(NS(=O)(=O)c3ccc(F)cc3)ccc2O[C@@H]1CN(C)Cc1ccc(Oc2ccccc2)cc1 | i
C[C@H]1CN([C@@H](C)CO)C(=O)Cc2cc(NC(=O)CCN3CCOCC3)ccc2O[C@H]1CN(C)S(=O)(=O)c1cn(C)cn1 | i
CN(C)CC(=O)N1[C@H](CO)[C@H](c2ccccc2-c2ccccc2F)[C@@H]1C#N | i
C/C=C/c1cnc2c(c1)C(=O)N([C@H](C)CO)C[C@H](C)[C@@H](CN(C)CC1CCOCC1)O2 | i
COCC#Cc1ccc2c(c1)O[C@@H](CN(C)C(=O)Nc1ccccc1F)[C@H](C)CN([C@@H](C)CO)S2(=O)=O | i
C[C@H]1CN([C@@H](C)CO)C(=O)c2ccccc2-c2ccccc2CO[C@H]1CN(C)C(=O)Oc1ccccc1 | i
C[C@H]1CN([C@@H](C)CO)C(=O)c2cccc(NC(=O)Nc3ccccc3)c2O[C@@H]1CN(C)S(=O)(=O)c1cn(C)cn1 | i
COc1cccc(CNC(=O)C[C@@H]2CC[C@H](NC(C)=O)[C@@H](CO)O2)c1 | i
CN1[C@@H]2Cn3c(ccc(-c4ccccc4)c3=O)[C@H]1[C@@H](C(=O)NCC1CC1)[C@@H]2CO | i
O=C(O)[C@@H]1[C@@H](CO)[C@@H]2Cn3c(ccc(-c4cncnc4)c3=O)[C@@H]2N1C(=O)C1CCCCC1 | i
C[C@H](CO)N1C[C@H](C)[C@H](CN(C)Cc2cccc(C(=O)O)c2)Oc2ncc(C#CCN(C)C)cc2C1=O | i
CN1CCN(C(=O)C[C@@H]2C[C@H]3c4cc(NC(=O)c5ccc6c(c5)OCO6)ccc4O[C@H]3[C@@H](CO)O2)CC1 | i
COc1ccc(C2CC(=O)C(c3ccc(C(N)=O)cc3)=CN2Cc2ccccc2)cc1 (stereo not drawn) | i
CC(C)NC(=O)N(C)C[C@@H]1Oc2ncc(C#Cc3ccccc3F)cc2C(=O)N([C@@H](C)CO)C[C@H]1C | i
Cc1ccccc1-c1ccc2c(c1)O[C@@H](CN(C)C(=O)Nc1ccc(F)cc1)[C@H](C)CN([C@@H](C)CO)S2(=O)=O | i
COc1cccc(NC(=O)N2C[C@H](O)COC[C@@H]3O[C@@H](CC(=O)NCCCN4CCOCC4)CC[C@H]32)c1 | i
C[C@H](O)C#Cc1cnc2c(c1)C(=O)N([C@@H](C)CO)C[C@H](C)[C@@H](CN(C)Cc1cccc(C(=O)O)c1)O2 | i
CCC(=O)Nc1ccc2c(c1)C(=O)N(C)C[C@@H](OC)[C@@H](C)CN(Cc1ccccc1F)[C@H](C)CO2 | i
C[C@@H]1CN([C@H](C)CO)C(=O)c2cc(NC(=O)Nc3ccc(F)cc3)ccc2O[C@H]1CN(C)C(=O)Nc1cccc2ccccc12 | i
CC(C)CC#Cc1ccc([C@H]2[C@@H](CO)N3C(=O)CN(C(=O)Cc4cccnc4)C[C@H]23)cc1 | i
COC(=O)[C@]12C[C@H](CC(=O)N3CCN(C(=O)C4CC4)CC3)C(=O)N(CCC3=CCCCC3)C1=C[C@H](COCc1ccccc1)O[C@@H]2C | i
O=C(C[C@@H]1C[C@@H]2c3cc(NC(=O)c4ccc5c(c4)OCO5)ccc3O[C@@H]2[C@@H](CO)O1)NC1CCCC1 | i
C[C@@H]1CN([C@@H](C)CO)C(=O)c2c(c3ccccc3n2C)-c2ccccc2CO[C@@H]1CN(C)C(=O)Nc1ccc(-c2ccccc2)cc1 | i
COc1ccccc1C#Cc1ccc2c(c1)O[C@H](CN(C)C)[C@@H](C)CN([C@@H](C)CO)S2(=O)=O | i
CCC(=O)N[C@H]1C=C[C@H](CC(=O)NCC2CCCCC2)O[C@H]1CO | i
C[C@@H]1CCCCO[C@H](CN(C)C(=O)Nc2ccc(F)cc2)[C@@H](C)CN([C@@H](C)CO)C(=O)c2cc(NC(=O)c3ccncc3)ccc2O1 | i
C[C@@H]1CN([C@@H](C)CO)C(=O)c2cc(N(C)C)ccc2O[C@@H]1CN(C)Cc1ccc(C(F)(F)F)cc1 | i

Retrieved by structure from the list above (two):
SMILES | FGF22 binding
CC(C)CC#Cc1ccc([C@H]2[C@@H](CO)N3C(=O)CN(C(=O)Cc4cccnc4)C[C@H]23)cc1 | i
CCC(=O)N[C@H]1C=C[C@H](CC(=O)NCC2CCCCC2)O[C@H]1CO | i

The main list resumes, repeating the 6 entries before the break.
Structure	FGF22 binding
O=C(C[C@@H]1C[C@@H]2c3cc(NC(=O)c4ccc5c(c4)OCO5)ccc3O[C@@H]2[C@@H](CO)O1)NC1CCCC1	i
C[C@@H]1CN([C@@H](C)CO)C(=O)c2c(c3ccccc3n2C)-c2ccccc2CO[C@@H]1CN(C)C(=O)Nc1ccc(-c2ccccc2)cc1	i
COc1ccccc1C#Cc1ccc2c(c1)O[C@H](CN(C)C)[C@@H](C)CN([C@@H](C)CO)S2(=O)=O	i
CCC(=O)N[C@H]1C=C[C@H](CC(=O)NCC2CCCCC2)O[C@H]1CO	i
C[C@@H]1CCCCO[C@H](CN(C)C(=O)Nc2ccc(F)cc2)[C@@H](C)CN([C@@H](C)CO)C(=O)c2cc(NC(=O)c3ccncc3)ccc2O1	i
C[C@@H]1CN([C@@H](C)CO)C(=O)c2cc(N(C)C)ccc2O[C@@H]1CN(C)Cc1ccc(C(F)(F)F)cc1	i
O=C(C[C@H]1CC[C@H]2[C@@H](COC[C@H](O)CN2Cc2cocn2)O1)NCc1cccc(F)c1	i
C[C@@H]1CN([C@H](C)CO)S(=O)(=O)c2ccc(-c3cccc(F)c3)cc2O[C@@H]1CN(C)S(=O)(=O)c1ccc(F)cc1	i
COc1ccc(NC(=O)N(C)C[C@H]2Oc3ccc(NC(=O)Cc4cn(C)c5ccccc45)cc3CC(=O)N([C@@H](C)CO)C[C@@H]2C)cc1	i
C[C@@H]1CCCCO[C@@H](CN(C)S(=O)(=O)c2ccc(Cl)cc2)[C@H](C)CN([C@H](C)CO)C(=O)c2cc(NC(=O)Nc3ccc4c(c3)OCO4)ccc2O1	i
O=C(NCc1ccccc1)[C@@H]1[C@@H](CO)[C@@H]2Cn3c(cccc3=O)[C@H]1N2Cc1ccccn1	i
N#C[C@@H]1[C@H](c2ccc(C#CC3CCCCC3)cc2)[C@@H](CO)N1C(=O)c1cccc(F)c1	i
Cc1ccc(S(=O)(=O)Nc2cccc3c2O[C@@H](CN(C)S(=O)(=O)c2cn(C)cn2)[C@@H](C)CN([C@H](C)CO)C3=O)cc1	i
O=C(c1cccnc1)N1C[C@H]2[C@@H](c3ccccc31)[C@@H](CO)N2CC1CCCCC1	i
C[C@@H]1CN([C@@H](C)CO)C(=O)c2cc(-c3ccc(C(=O)N(C)C)cc3)cnc2O[C@H]1CN(C)C(=O)c1ccncc1	i
COC(=O)[C@H]1[C@H](CO)[C@H]2Cn3c(ccc(-c4cccc(C(=O)N(C)C)c4)c3=O)[C@H]2N1C	i
CO[C@@H]1CN(C)C(=O)c2ccc(NC(C)=O)cc2OC[C@H](C)N(C(=O)c2ccc(F)cc2)C[C@H]1C	i
C[C@@H]1CN([C@H](C)CO)C(=O)c2cc(C#CC3(O)CCCC3)cnc2O[C@H]1CN(C)C(=O)CC1CC1	i
Cc1ccc(-c2cnc3c(c2)C(=O)N([C@@H](C)CO)C[C@@H](C)[C@@H](CN(C)C(=O)Cc2cccnc2)O3)cc1	i
O=C(CCN1CCCCC1)NCC[C@@H]1CC[C@@H](NC(=O)C2CC2)[C@@H](CO)O1	i
O=C(C[C@H]1CC[C@@H]2[C@H](COC[C@H](O)CN2C(=O)c2ccccc2F)O1)N1CCCCC1	i
CN(C)CC(=O)N1[C@H](CO)[C@H](c2ccccc2)C12CN(C(=O)c1ccccc1)C2	i
CO[C@H]1CN(C)C(=O)c2cc(NC(C)=O)ccc2OC[C@@H](C)N(C(=O)C2CCC2)C[C@@H]1C	i
C[C@H](CO)N1C[C@H](C)[C@@H](CN(C)Cc2ccccn2)Oc2ncc(C#Cc3cccc(F)c3)cc2C1=O	i
COc1ccc(CNC(=O)[C@@H](Cc2ccccc2)NC(=O)[C@H]2O[C@@H](n3ccc(=O)[nH]c3=O)[C@H](O)[C@@H]2O)cc1	i
C[C@@H]1CN([C@H](C)CO)C(=O)c2cc(NC(=O)Cc3cn(C)c4ccccc34)ccc2O[C@H]1CN(C)C(=O)Nc1ccccc1	i
CN1C[C@H]2[C@@H](c3ccccc31)[C@H](CO)N2C(=O)CN1CCOCC1	i
C[C@H](CO)N1C[C@H](C)[C@H](CN(C)C(=O)CC2CC2)Oc2ncc(C#C[C@@H](C)O)cc2C1=O	i
COC(=O)C[C@@H]1CC[C@H]2[C@@H](COc3ccc(NC(=O)Nc4cc(C)cc(C)c4)cc3C(=O)N2C)O1	i
C[C@H](CO)N1C[C@H](C)[C@@H](CN(C)Cc2ccc(C(F)(F)F)cc2)Oc2ccc(NC(=O)Cc3cn(C)c4ccccc34)cc2C1=O	i
C[C@H](CO)N1C[C@H](C)[C@H](CN(C)Cc2ccncc2)Oc2ccc(NC(=O)CCC(F)(F)F)cc2CC1=O	i
C[C@@H]1CN([C@H](C)CO)C(=O)c2cccc(NC(=O)C3CCCCC3)c2O[C@H]1CN(C)C(=O)Nc1ccc(F)cc1	i
COC(=O)C[C@@H]1CC[C@@H]2[C@H](COc3ccc(NC(=O)NC(C)C)cc3C(=O)N2C)O1	i
C[C@H]1CCCCO[C@H](CN(C)C)[C@@H](C)CN([C@@H](C)CO)C(=O)c2cc(NC(=O)CCC(F)(F)F)ccc2O1	i
O=C(C[C@@H]1C[C@H]2c3cc(NC(=O)C4CCOCC4)ccc3O[C@H]2[C@H](CO)O1)NCc1ccccn1	i
C[C@@H]1CN([C@@H](C)CO)S(=O)(=O)c2ccc(-c3cccc(F)c3)cc2O[C@@H]1CN(C)S(C)(=O)=O	i
C[C@H]1CN([C@@H](C)CO)C(=O)Cc2cc(NC(=O)C3CCCCC3)ccc2O[C@H]1CN(C)S(=O)(=O)c1cn(C)cn1	i
CCC(=O)Nc1ccc2c(c1)C(=O)N(C)C[C@H](OC)[C@@H](C)CN(C(=O)c1ccncc1)[C@H](C)CO2	i
COc1ccc2c3c(n(C)c2c1)[C@@H](CO)N(C(=O)C1CCC1)CC31CCN(C(=O)c2ccncc2)CC1	i
O=C(C[C@H]1CC[C@H]2[C@@H](COC[C@H](O)CN2S(=O)(=O)c2ccccc2)O1)NCCN1CCCCC1	i
C[C@@H]1CN([C@@H](C)CO)C(=O)c2cc(NC(=O)Cn3cnnn3)ccc2O[C@H]1CN(C)Cc1ccc(C(=O)O)cc1	i
CC(=O)N(C)C[C@@H]1Oc2cc(C#CCC(C)C)ccc2S(=O)(=O)N([C@@H](C)CO)C[C@@H]1C	i
CN(C)C(=O)c1ccc(-c2cccc(-c3nc(C(=O)NC4CCCCC4)cc4c3[C@@H](CCO)N([S@](=O)C(C)(C)C)C4)c2)cc1	i
CNC(=O)C[C@H]1CC[C@H]2[C@H](COc3ccc(NC(=O)C4CCCCC4)cc3C(=O)N2C)O1	i
C[C@@H]1CN([C@@H](C)CO)C(=O)Cc2cc(NC(=O)Nc3cccc4ccccc34)ccc2O[C@@H]1CN(C)CC1CC1	i
O=C(NCC[C@H]1CC[C@@H](NC(=O)C2CCCCC2)[C@H](CO)O1)c1cc(Cl)cc(Cl)c1	i
COc1ccc(NC(=O)N(C)C[C@@H]2Oc3ccc(NC(=O)NC(C)C)cc3C(=O)N([C@@H](C)CO)C[C@H]2C)cc1	i
CO[C@H]1CN(C)C(=O)c2ccc(NS(=O)(=O)c3ccccc3Cl)cc2OC[C@H](C)NC[C@@H]1C	i
CNC[C@@H]1Oc2ccc(NC(=O)Cc3cn(C)c4ccccc34)cc2C(=O)N([C@@H](C)CO)C[C@H]1C	i
CNC[C@@H]1Oc2ccc(NS(=O)(=O)c3ccc(OC)cc3)cc2C(=O)N([C@@H](C)CO)C[C@@H]1C	i
COc1ccc(-c2ccc3c(c2)O[C@H](CN(C)CC2CCOCC2)[C@@H](C)CN([C@@H](C)CO)S3(=O)=O)cc1	i
CO[C@@H]1CN(C)C(=O)c2ccc(NC(=O)C3CCC3)cc2OC[C@@H](C)N(Cc2nccs2)C[C@H]1C	i
COC(=O)N1Cc2ccnnc2CC1c1ccccc1Br (stereo not drawn)	i
CCNC(=O)C[C@H]1CC[C@@H]2[C@H](COC[C@@H](O)CN2C(=O)CC)O1	i
